LANA-H2B inh: blocks KSHV LANA binding to histone H2A/H2B | hit rate 0.6% among 320,000 | cell-free LANA-H2A/H2B peptide, fluorescence polarization | inhibition, % (concentration not given with the values) | Q9QR71 | AID 2629; in the data active means inhibition mostly above about 10%, no sharp cut-off; inactive means mostly below about 6.7%;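 further: stock transfer was 7.5 nL into about 10 µL; 0% = median of vehicle wells and 100% = median of positive control wells; one replicate is shown; the record names a cut of 25% in any replicate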
Vif TR-FRET: HIV-1 Vif–A3G interaction blockers – biochemical, TR-FRET, GST-Vif 1-94, biotin-A3G peptide, dose response retest, primary screen (AID 1117319); TR-FRET GST-Vif / biotin-A3G peptide binding; higher % means a stronger effect; test concentration not given here; strong numbers were not always called active; inhibition, %; hits with a dose series show IC50 in µM; hit rate 0.57% among 260,000;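 active means above the screen mean plus three standard deviations and confirmed in dose response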;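 further: Vif residues 1-94 fused to GST binding biotinylated APOBEC3G peptide 110-148; 0% = full assay without inhibitor and 100% = GST in place of GST-Vif; retest series ran down from 100 µM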
UCH37 inh: human UCH37 deubiquitinating enzyme inhibition | Q9Y5K5 | purified proteasome/UCH37, Ub-AMC cleavage fluorescence | inhibition, % (test concentration not listed) | hit rate 0.33% among 330,000;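 active means mean of two replicates above 20%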;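 further: 0% = compound-free wells with enzyme and 100% = wells lacking proteasome; stock transfer was 100 nL into about 20 µL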
Target sequence (Q9Y5K5 whole entry, looked up): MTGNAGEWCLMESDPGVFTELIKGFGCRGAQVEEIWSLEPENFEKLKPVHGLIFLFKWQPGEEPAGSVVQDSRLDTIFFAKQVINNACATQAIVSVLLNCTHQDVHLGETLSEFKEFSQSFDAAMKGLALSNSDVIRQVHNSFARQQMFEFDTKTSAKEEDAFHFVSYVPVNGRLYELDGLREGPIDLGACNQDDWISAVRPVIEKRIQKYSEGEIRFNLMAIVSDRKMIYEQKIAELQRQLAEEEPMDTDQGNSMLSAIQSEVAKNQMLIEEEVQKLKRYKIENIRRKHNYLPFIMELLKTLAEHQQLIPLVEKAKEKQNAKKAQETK
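system = Proteasome-associated human UCH37 deubiquitinase | amount = 0.15 nM proteasome as dispensed | medium = pH 7.4 Tris-HCl (50 mM) with ovalbumin, ATP-MgCl2, DTT | incubation = 30 min preincubation with enzyme, 25 min cleavage at room temperature | detection = AMC fluorescence 355/460 nm | read-out basis = percent inhibition | controls = no-proteasome and no-compound wells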
HNF4A DNA FP: change in binding of human HNF4 alpha to DNA; P41235; HNF4a-FITC DNA binding, fluorescence polarization, 1 h; activity change, % at 10 µM; hit rate 0.3% among 360,000; AID 1224865; in the data active means activity change above about 30%, passing the limit was not always enough;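 further: controls were the assay level and a saturating level of protein; the project sought stronger binding though the title names inhibitors; some compounds called inactive have numbers as strong as hits; positive values seem to mean higher polarization but the record does not say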
Target sequence (P41235 whole entry, looked up): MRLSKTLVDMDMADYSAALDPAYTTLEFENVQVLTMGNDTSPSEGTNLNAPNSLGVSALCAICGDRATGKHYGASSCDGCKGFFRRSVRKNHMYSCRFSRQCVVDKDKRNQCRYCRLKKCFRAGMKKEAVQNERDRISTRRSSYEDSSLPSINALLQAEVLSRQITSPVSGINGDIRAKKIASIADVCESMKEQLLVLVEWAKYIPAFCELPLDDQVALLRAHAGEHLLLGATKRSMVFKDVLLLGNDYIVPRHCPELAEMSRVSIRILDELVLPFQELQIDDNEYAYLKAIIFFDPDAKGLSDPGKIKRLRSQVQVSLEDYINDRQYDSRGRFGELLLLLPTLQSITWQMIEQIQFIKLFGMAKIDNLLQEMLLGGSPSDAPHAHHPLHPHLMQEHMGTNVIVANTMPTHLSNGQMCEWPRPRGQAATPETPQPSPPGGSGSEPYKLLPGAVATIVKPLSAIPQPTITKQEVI
A1 inh: inhibitors of the anti-apoptotic protein A1, read as caspase activation. MEF A1-2A-BIM cells, Caspase-Glo 3/7 luminescence, 3 h; percent of clofoctol response, vehicle zero. caspase activation, % (concentration not given with the values). hit rate 0.066% among 330,000. AID 2462;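 active means over half of replicate activation scores above 10%, or exactly half above 10 with the replicate mean above 10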;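 further: wells of about 30 µL received 50 nL stock; many hits fall short of the cut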
E coli growth: inhibitors of Escherichia coli growth | OD600, 23 h; active compounds read low | OD600 absorbance (concentration not given with the values) | hit rate 0.21% among 330,000 | AID 1053175;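 active means OD600 absorbance below the run mean of sample wells minus 3.6 SD, in any replicate, cut at about 0.56 in these data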;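 further: stock transfer was 300 nL into about 60 µL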
B2AR ag: agonists of human beta-2 adrenergic receptor inducing internalization; AID 504454; Am2.2-beta2AR cells, FAP receptor internalization, flow cytometry; reference of the scale not given here; hit rate 0.43% among 340,000; response, % (concentration not given with the values); P07550;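 active means response above a set limit, near 3 SD of response in nonfluorescent compounds, cut at about 42% in these data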;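 further: stock transfer was 100 nL into about 11 µL; a reference agonist was the positive control; negative values mostly stem from fluorescent compounds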
Numbers without * were called inactive; x = not tested or not shown.

SMILES | LANA-H2B inh | Vif TR-FRET | UCH37 inh | HNF4A DNA FP | A1 inh | E coli growth | B2AR ag
COC(=O)CCC(=O)OC1(C)C(=O)C2=CN(CCCOC(C)C)C(c3ccc(OC)cc3)=CC2=C(Br)C1=O (stereo not drawn) | 6.9 | 12µM* | 2.9 | -3.4 | 0.2 | x | 7
O=C(COc1ncnc2cc([N+](=O)[O-])ccc12)NCCc1ccc(Cl)cc1 | 2.3 | x | 2.4 | 2.5 | -0.2 | 0.71 | -4
CC(CCc1ccccc1)NC(=O)c1ccco1 (stereo not drawn) | -0.8 | x | 1.9 | -0.6 | -0.5 | 0.74 | 12
COC(=O)c1scc(C)c1NC(=O)Nc1ccccc1 | 0.4 | 3% | 5.7 | 0.2 | -0.4 | 0.75 | 5
O=C(CCc1nc(-c2ccccc2)c(-c2ccccc2)o1)OCc1ccc(Br)cc1 | 3.7 | 3% | -1.6 | -5.7 | 0.6 | 0.65 | -1
CCCCOc1ccc(C(C)NC(=O)CCS(=O)(=O)Cc2ccccc2F)cc1 (stereo not drawn) | 1.2 | -3% | -0.6 | -2.1 | -0.3 | 0.69 | -17
CC(C)C1Nc2ccc(S(N)(=O)=O)cc2C2C=CCC21 (stereo not drawn) | 0.9 | 31% | 3.5 | -9.3 | -0.3 | 0.73 | 7
CCOC(=O)c1c(C)[nH]c(C(=O)OCC(=O)c2ccc3c(c2)NC(=O)CO3)c1C | 5.9 | 4% | 1.7 | -0.2 | -0.4 | 0.69 | 2
N#Cc1cccc(NC(=O)c2cncn2-c2ccccc2)c1 | -1.7 | x | 0.0 | -1.6 | -0.8 | 0.66 | -12
O=C(Nn1c(=O)[nH]c2ccccc2c1=O)c1ccco1 | -0.4 | 19% | 3.1 | 1.8 | -1.0 | 0.73 | -7
COCC1CCN(C(=O)CCc2nnc(C3(c4ccc(Cl)cc4)CCC3)o2)C1 (stereo not drawn) | -2.0 | -1% | 2.5 | 3.1 | 0.8 | 0.71 | -4
COC(=O)c1cc2c(s1)CS(=O)C2 (stereo not drawn) | 1.6 | -2% | 1.6 | 1.0 | 0.4 | 0.65 | 11
O=C(CN1C(=O)/C(=C\c2ccco2)SC1=S)Nc1ccc(O)cc1C(=O)O | 9.2 | x | 8.7 | -37 | -0.6 | 0.7 | 6
CCOc1ccc(C2c3[nH]c4ccccc4c3CCN2C(=O)Cn2cncn2)cc1 (stereo not drawn) | 0.1 | 2% | 0.4 | 2.0 | 0.0 | 0.7 | 1
S=C1NC[C@H](c2ccccc2)N1CC1CCCCC1 | 4.0 | -10% | 4.9 | -0.8 | 1.3 | x | 0

Molecules from the list above containing an NH in an aromatic ring:
SMILES | LANA-H2B inh | Vif TR-FRET | UCH37 inh | HNF4A DNA FP | A1 inh | E coli growth | B2AR ag
CCOC(=O)c1c(C)[nH]c(C(=O)OCC(=O)c2ccc3c(c2)NC(=O)CO3)c1C | 5.9 | 4% | 1.7 | -0.2 | -0.4 | 0.69 | 2
O=C(Nn1c(=O)[nH]c2ccccc2c1=O)c1ccco1 | -0.4 | 19% | 3.1 | 1.8 | -1.0 | 0.73 | -7
CCOc1ccc(C2c3[nH]c4ccccc4c3CCN2C(=O)Cn2cncn2)cc1 (stereo not drawn) | 0.1 | 2% | 0.4 | 2.0 | 0.0 | 0.7 | 1

The list continues:
SMILES | LANA-H2B inh | Vif TR-FRET | UCH37 inh | HNF4A DNA FP | A1 inh | E coli growth | B2AR ag
CN(C)S(=O)(=O)c1ccc(C(=O)N2CC(=O)Nc3ccc(F)cc3C2c2ccc(F)cc2)cc1 (stereo not drawn) | 1.7 | 2% | 5.0 | -0.1 | -0.3 | 0.69 | -1
CCOc1ccccc1N1CC(C(=O)N(CC)CC(=O)Nc2ccc3c(c2)OCCO3)CC1=O (stereo not drawn) | 3.4 | 3% | 1.2 | -3.5 | 1.0 | 0.63 | 1
Cc1ccnc(OC(C(=O)O)C(OCc2ccccc2)(c2ccccc2)c2ccc(C(F)(F)F)cc2)n1 (stereo not drawn) | 1.3 | x | 6.8 | -2.4 | 0.0 | 0.71 | 5
OCC1CCCCN1C(=S)Nc1cccc(Cl)c1 (stereo not drawn) | -4.6 | 0% | 5.2 | -5.8 | -1.2 | 0.68 | 1
CCOC(=O)N1CCN(C(=O)CN(C2CCCCC2)S(C)(=O)=O)CC1 | -4.7 | 1% | 4.2 | 0.7 | 1.2 | 0.68 | 5
Cc1ccc(Nc2nc3nonc3nc2N(C)C)cc1 | 2.2 | 76% | 10 | -3.0 | -0.4 | 0.72 | 0
CC(C)(C)C(=O)NC1CCN(C(=O)N2CCCC2)CC1 | 5.4 | -1% | -0.6 | -0.1 | 0.2 | 0.71 | 3
Cc1cccc(-n2c(Cn3nc(C)c([N+](=O)[O-])c3C)n[nH]c2=S)c1 | -0.3 | -8% | 0.9 | 3.4 | 0.0 | 0.74 | 7
O=C(CC(CC(=O)c1ccccc1)C(=O)O)c1ccccc1 | 0.1 | 1% | 2.9 | 0.4 | 2.2 | 0.62 | 2
CCOC(=O)c1cn(CC2CC2)c2cc(F)c(F)cc2c1=O | -1.6 | -7% | 2.0 | -1.0 | 0.6 | 0.69 | -7
COC(=O)c1ccc(/C=C/C(=O)OCC(=O)Nc2cc(C)on2)cc1 | -2.7 | 2% | 5.2 | 0.3 | -0.3 | 0.65 | -1
O=C(CCn1nc(-c2ccc(Cl)cc2)ccc1=O)N1CCN(c2ccc(F)cc2)CC1 | 2.5 | -11% | -0.1 | -2.7 | -0.7 | 0.69 | 4
CC(C)CC(=O)Nc1ccccc1-c1nnn(CC(=O)N2CCc3ccccc3C2)n1 | 3.4 | 11% | 1.6 | -1.2 | 0.4 | 0.72 | -13
Cc1cc(N2CCN(C(c3ccccc3)c3ccc(Cl)cc3)CC2)n2ncnc2n1 (stereo not drawn) | 0.0 | 4% | 6.4 | 0.5 | 0.3 | 0.71 | 12
CCc1nnc(NC(=O)c2cc(-c3ccc(C)o3)nc3ccccc23)s1 | -1.1 | -1% | -124 | 2.7 | -1.3 | 0.62 | 6
COc1ccc2c(c1)c(CC(=O)OCC(N)=O)c(C)n2C(=O)c1ccc(Cl)cc1 | -8.7 | -10% | 0.3 | 0.5 | 0.9 | 0.69 | -5
CN(C)CCNc1oc(COc2ccc(Cl)cc2)nc1C#N | 0.9 | 65% | -0.1 | 2.7 | -0.6 | 0.72 | -4
Cc1csc(NC(=O)c2ccco2)c1C(=O)c1ccccc1 | 5.1 | -13% | 2.9 | 0.8 | -0.4 | 0.7 | -12
CNC(=S)N(CCc1ccc(OC)c(OC)c1)C1CC(=O)N(c2ccccc2)C1=O (stereo not drawn) | -8.7 | -1% | 3.8 | 2.5 | 1.0 | 0.67 | 4
C=CCNC(=O)c1ccc(CSc2nc3ccccc3s2)cc1 | 4.9 | 4% | 1.6 | 2.7 | -4.5 | 0.65 | -6
O=C(COc1ccc(S(=O)(=O)N2CCOCC2)cc1)Nc1ccc2c(c1)OCCO2 | 2.1 | -1% | 2.2 | 2.1 | 1.1 | 0.69 | 5
CCc1cccc2c1NC(=O)C2(O)N1CCCC(C)C1 (stereo not drawn) | 0.3 | -3% | 1.6 | 3.0 | 1.3 | 0.63 | -10
COC(=O)c1cc(NC(=S)N2CCN(C(=O)C3CCCO3)CC2)cc(C(=O)OC)c1 (stereo not drawn) | 3.1 | -3% | 0.2 | 3.4 | 0.1 | 0.72 | 11
CCOc1ccccc1NC(=O)c1oc2ccccc2c1NC(=O)C1CC1 | 0.0 | -5% | -158 | 5.4 | 0.0 | 0.73 | 0
O=C(NCC(c1ccc(F)cc1)N1CCOCC1)c1c(F)cccc1F (stereo not drawn) | 7.7 | x | 1.7 | -1.9 | -0.5 | 0.67 | 8
O=C1c2ccccc2C(=O)N1CCc1c[nH]c2ccccc12 | -6.3 | -1% | 3.2 | -2.2 | 1.7 | 0.62 | 4
COC(=O)C1=C(C)N(Cc2ccccc2)C(=NCCc2c[nH]c3ccccc23)N[C@H]1c1cccc(C(F)(F)F)c1 | 12 | x | -1.4 | 7.2 | 0.4 | x | 12
CCOc1cc(C)c(Cl)cc1S(=O)(=O)N1CCCC1 | -2.4 | -1% | 0.2 | 0.4 | -0.7 | 0.69 | -2
COCc1cc(C)nc2sc(C(=O)NCCO)c(-n3cccc3)c12 | 3.0 | 0% | -0.2 | -0.3 | 0.5 | 0.67 | 12
O=C(O)CNS(=O)(=O)c1ccc2c(c1)Cc1cc(S(=O)(=O)NCC(=O)O)ccc1-2 | -3.2 | 4% | x | 0.2 | -0.2 | x | -4
CCc1cc(=O)oc2cc(C)cc(OC(C)C(=O)NC3CCN(Cc4ccccc4)CC3)c12 (stereo not drawn) | 8.0 | x | -53 | -1.0 | -0.3 | 0.65 | 7
CSc1ccccc1NC(=O)c1cnc2scc(C)n2c1=O | 1.8 | 9% | 8.0 | 3.1 | -1.5 | 0.69 | -7
COc1cccc(/C=N/NC(=O)c2nnn(-c3nonc3N)c2C(C)C)c1OCc1ccc(F)cc1 | 3.5 | x | x | -0.1 | 0.0 | x | 14
O=C(COc1cccnc1[N+](=O)[O-])Nc1ccc(Cl)c(S(=O)(=O)N2CCOCC2)c1 | -0.3 | 1% | 5.6 | 3.4 | 0.4 | 0.72 | 1
COC(=O)CNC(=O)CCC(=O)N1CCN(C(c2ccccc2)c2ccccc2)CC1 | -6.3 | 5% | 1.6 | -1.1 | -0.8 | 0.62 | -3
Cc1cc(Oc2cc(NN3CCCCC3)c([N+](=O)[O-])cc2[N+](=O)[O-])c(C(=O)c2ccccc2)cc1Cl | 4.3 | x | 6.7 | 1.1 | -1.3 | 0.75 | 1
CC1CCN(C(=O)COC(=O)CCCN2C(=O)c3cccc4cccc(c34)C2=O)CC1 | 0.6 | x | -76 | 1.2 | -0.5 | 0.72 | 5
CCOC(=O)N1CCC(NC(=O)CN2C(=O)CCSc3ccccc32)CC1 | 1.8 | 11% | 5.9 | 4.7 | 0.3 | 0.72 | -1
Cc1onc(-c2ccccc2Cl)c1C(=O)N1CCc2ccccc21 | 1.0 | -5% | 2.2 | -3.7 | 1.1 | 0.65 | 9
O=S(=O)(NCC1OCCc2ccccc21)c1ccccc1 (stereo not drawn) | -1.8 | 0% | 0.6 | 4.1 | -0.2 | 0.67 | -3
N#CC1=C(N)N(c2ccccc2)C(=O)C1 | 1.9 | 6% | 1.0 | -0.4 | 0.6 | 0.76 | -7
N#C/C(=C\c1ccccc1Cl)C(=O)Nc1ccccn1 | 1.0 | -5% | -21 | -2.9 | -0.3 | 0.67 | -2
CC1CCc2nc(NC(=O)Nc3ccc4c(c3)OCO4)sc2C1 (stereo not drawn) | -2.8 | 12% | 4.5 | -4.0 | -0.8 | 0.66 | -2
COc1cccc(CN2CCN(c3nc4nonc4nc3NC3CC3)CC2)c1 | -1.4 | 3% | 8.0 | -4.6 | 0.5 | 0.69 | -4
CC1CC(C(F)F)n2nc(C(=O)Nc3sc4c(c3C#N)CCC(C(C)(C)C)C4)nc2N1 (stereo not drawn) | 1.1 | -2% | -249 | -3.6 | -1.8 | 0.76 | 0
O=C(OC(C(=O)NCC1CCCO1)c1ccc(F)cc1)c1cccs1 (stereo not drawn) | -10 | 29% | 4.1 | -1.1 | 0.3 | 0.73 | 2
COC(=O)NNC(=O)c1ccccc1C | 2.3 | 11% | 2.8 | 1.8 | -0.1 | 0.65 | 6
O=C(CN1C(=O)c2ccccc2C1=O)NC1CCCCC1 | -1.1 | 9% | 1.5 | -4.7 | 0.2 | 0.71 | -4

Source: PubChem (several laboratories)
